MARV entry inh: qHTS for inhibitors of binding or entry into cells for Marburg Virus; Marburg virus pseudotyped entry inhibition, cell reporter; control for the full effect not named in the record; about a third of the inactives were read at about 46 µM; Potency, µM (doses to about 37.8 µM), for inactives: top-dose activity change, negative = inhibition, actives largely listed as inhibitors; actives 1.8% (n = 300,000); active = well fitted inhibition curve with a large enough effect; inconclusive = small, poorly fitted or top-dose-only effect, or effect the other way; inactive = flat fitted curve, though single readings scatter; tested in HEK293 cells; about a fifth of its hits are not listed in these tables; note: % is set by controls: 0 for no effect and ±100 for the full control effect; luciferase read-out
Cruzain noTriton: qHTS Assay for Promiscuous and Specific Inhibitors of Cruzain (without detergent) | purified cruzain, Z-FR-AMC fluorescence, no detergent | actives 2.3% (n = 200,000) | Potency, µM, inactives show max response, negative = inhibition, hits mostly inhibitors | AID 1476, 2009 | Cruzipain (Trypanosoma cruzi), P25779; active = well fitted curve in the direction sought with a large enough effect; inconclusive = small, poorly fitted or top-dose-only effect, or another doubt; inactive = no such curve, though single readings can be large; an effect the other way counts as inactive or inconclusive;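 note: plate controls were enzyme without inhibitor for no effect and buffer without enzyme for full effect; nearly all actives have a fitted effect of over 40% in size; top concentration of the series not given in the record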
Target sequence (P25779 123-467 limits assumed): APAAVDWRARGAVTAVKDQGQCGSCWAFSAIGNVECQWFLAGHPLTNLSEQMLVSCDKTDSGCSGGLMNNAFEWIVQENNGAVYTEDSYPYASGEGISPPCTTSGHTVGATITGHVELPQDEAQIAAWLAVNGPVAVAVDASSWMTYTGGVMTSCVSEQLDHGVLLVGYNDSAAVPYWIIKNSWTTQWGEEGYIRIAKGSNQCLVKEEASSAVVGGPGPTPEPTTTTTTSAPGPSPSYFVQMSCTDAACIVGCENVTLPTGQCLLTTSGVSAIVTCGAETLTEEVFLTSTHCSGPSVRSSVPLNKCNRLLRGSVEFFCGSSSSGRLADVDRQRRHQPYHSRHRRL
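Purified cruzain at 1.5 nM, pre-incubated 15 min with compound at room temperature in 100 mM sodium acetate pH 5.5, 5 mM DTT, 0.00005% Triton X-100. Reaction started with 2 uM Z-FR-AMC; AMC fluorescence increase over 60 s gives rate.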
SARS PLP yeast: qHTS of Yeast-based Assay for SARS-CoV PLP | Potency, µM (titrated, usually from 32.9 µM), for inactives: at the top dose activity, positive = growth rescue | S. cerevisiae expressing SARS-CoV PLpro, growth rescue; control for the full effect not named in the record | actives 0.19% (n = 330,000) | AID 485353, 2010; note: 0% is about no effect; nearly all actives have a fitted effect of over 55% in size; growth read by luminescence after 48 h
StopGo reporter: High Throughput Screening for Foot and Mouth Disease Virus Antivirals; human cells with a luciferase reporter of 2A StopGo recoding; control for the full effect not named in the record; actives 1.2% (n = 410,000); AID 1159524, 2015; Potency, µM (series often up to 57.9 µM), without a hit: at the highest dose signal change, negative = less light; active = well fitted falling curve with a large enough effect; inconclusive = small, poorly fitted or top-dose-only effect; inactive = no such curve, though single readings can be large or run the other way; tested in HEK293T cells; note: % is set by controls: 0 for no effect and ±100 for the full control effect; nearly all actives have a fitted effect of over 45% in size; luciferase light after 4 h
RE007 growth inh: qHTS Assay for Inhibitors of the HIV-1 protein Vpr; Potency, µM (doses to about 92.2 µM), for the others: at the top dose activity change, negative = less growth; actives 0.21% (n = 360,000); S. pombe RE007 Vpr strain, BacTiter-Glo ATP luminescence, 24 h; control for the full effect not named in the record; active = well fitted falling curve with a large enough effect; inconclusive = small, poorly fitted or top-dose-only effect; inactive = no such curve, though single readings can be large or run the other way;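 note: % is set by controls: 0 for no effect and ±100 for the full control effect; nearly all actives have a fitted effect of over 50% in size; the assay follows cell death caused by Vpr and the record does not say whether a fall means rescue or toxicity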
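Fission yeast RE007 carrying one integrated HIV-1 vpr copy, seeded at OD 0.01 in PMG+AL medium with 23 nL pinned compound. Grown 24 h at 30 degrees; viability read by BacTiter-Glo luminescence after 5 min.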
NS1 function inh: qHTS Assay for Inhibitors of Influenza NS1 Protein Function; S. cerevisiae slowed by influenza A NS1, growth recovery by OD600; Potency, µM (titrated, usually from 46.1 µM), without a hit: at the highest dose activity, positive = more growth; actives 0.4% (n = 270,000); note: actives are rising curves; nearly all actives have a fitted effect of over 50% in size
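Read-out: OD600 growth recovery of NS1-expressing budding yeast. Cells grown overnight at 30C in -URA glucose medium, washed, resuspended and diluted 1:100 in 2% galactose assay medium, pH 6.0. Same strain lacking NS1 served as positive control.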
LASV entry inh: qHTS for Inhibitors of binding or entry into cells for Lassa Virus | Lassa virus pseudotype entry inhibition, cell reporter; control for the full effect not named in the record | Potency, µM (titrated, usually from 37.9 µM), for the others: at the highest dose activity change, negative = inhibition, usual class: inhibitors | AID 540256, 2011 | actives 1.2% (n = 300,000); active means well fitted inhibition curve with a large enough effect; inconclusive means small, poorly fitted or top-dose-only effect, or effect the other way; inactive means flat fitted curve, though single readings scatter; tested in HEK293 cells; note: % is set by controls: 0 for no effect and ±100 for the full control effect; nearly all actives have a fitted effect of over 50% in size; luciferase read-out
Cruzain Triton: qHTS Assay for Promiscuous and Specific Inhibitors of Cruzain (with detergent). purified cruzain, Z-FR-AMC fluorescence, 0.01% Triton. Potency, µM, for the others: max response, negative = inhibition, usual class: inhibitors. actives 0.43% (n = 200,000). AID 1478, 2009; active = well fitted curve in the direction sought with a large enough effect; inconclusive = small, poorly fitted or top-dose-only effect, or another doubt; inactive = no such curve, though single readings can be large; an effect the other way counts as inactive or inconclusive;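 note: plate controls were neutral wells for no effect and buffer without enzyme for full effect; nearly all actives have a fitted effect of over 40% in size; top concentration of the series not given in the record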
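Steps: dispense cruzain (1.5 nM final) in acetate buffer pH 5.5 with DTT and 0.01% Triton X-100; pin-transfer compounds; incubate 15 min RT; add Z-FR-AMC (2 uM final); read fluorescence every 30 s, using the 60 s intensity change.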
* hit, by the source's call; u = inconclusive; x = no result given; & = joins results of further samples; [ ] = dose if it differs, or a comment. Unless noted, calls come from the whole dose curve; as a rule, active means well fitted rising curve with a large enough effect; inconclusive means small, poorly fitted or top-dose-only effect; inactive means no such curve, though single readings can be large or run the other way. Potency is the fitted concentration of half-maximal effect.

Under each structure – MARV entry inh	Cruzain noTriton	SARS PLP yeast	StopGo reporter	RE007 growth inh	NS1 function inh	LASV entry inh	Cruzain Triton
(1) Cc1ccccc1CN1CCN(C2CCC2)CC1CCO (stereo not drawn)
    u	x	0%	3%	-5%	-1%	u	x
(2) CCc1ccc(OCC(=O)Nc2ccc(N3CCN(C(=O)c4ccccc4)CC3)cc2)cc1
    x	x	-3%	-13%	-5%	6%	x	x
(3) COc1ccccc1NS(=O)(=O)c1cc2c3c(c1)CCN3C(=O)CC2
    -14%	x	0%	42%[activator]	3%	x	1%	x
(4) O=C(CC(c1ccccc1)c1ccccc1)NCC(O)c1ccc([N+](=O)[O-])cc1 (stereo not drawn)
    u	x	-8%	10%	-6%	6%	u	x
(5) Oc1ccc(-c2onc(C(F)(F)F)c2-c2cscn2)c(O)c1
    u	4%	-1%	0%	-6%	0%	-6%	-6.1%
(6) Cc1ccc(-n2c(=O)c(C#N)cc3c(=O)n4ccccc4nc32)cc1
    -4%	-3%	6%	-4%	8%	0%	u	25%
(7) COc1ccccc1NC(=O)Cn1c(CCC(=O)O)ccc1-c1ccc(C)cc1
    0%[46.1 µM]	x	-5%	3%	-1%	x	-10%[46.1 µM]	x
(8) CC(=O)N[C@H](Cc1c[nH]c2ccccc12)C(=O)O
    x	4%	x	-22%	-14%[18.4 µM]	4%	x	0.2%
(9) CC(=O)Nc1cc2c(cc1[N+](=O)[O-])-c1ccccc1C2=NO
    -17%	x	x	8%	-13%	x	4%	x
(10) CC(=O)N1CCc2cc(S(=O)(=O)NC(CC(C)C)C(=O)NCCc3ccc(C)cc3)ccc21 (stereo not drawn)
    -4%[46.1 µM]	5%	x	18%	x	x	-12%[46.1 µM]	-5.9%
(11) Cc1cc(C)c(C)c(S(=O)(=O)N2CCC(C(=O)N(C)Cc3nc4ccccc4c(=O)[nH]3)CC2)c1C
    u	x	x	-27%	16%	x	u	x
(12) COC(=O)C=P(c1ccccc1)(c1ccccc1)c1ccccc1
    30%&30%[14.2 µM]	-2%	x	x	x	x	u	1.7%
(13) O=C1c2ccccc2C(=O)N1c1ncccn1
    1%	-13%	-1%	-31%	-12%	-8%	1%	1.9%
(14) COc1ccc(-c2cc(C(F)F)n3ncc(C(=O)N4CCCc5ccccc54)c3n2)cc1
    1%[46.1 µM]	x	0%	-14%	-6%	0%	0%[46.1 µM]	x
(15) CCc1ccc(NS(=O)(=O)c2cccs2)cc1
    -23%	6%	-8%	42%[activator]	-16%	-35%	12%	-3.8%
(16) Cc1ccc2[nH]c(CSc3nnc(NC(=O)COc4ccccc4)s3)cc(=O)c2c1
    x	-3%	x	-25%	x	x	-1%[46.1 µM]	1.9%
(17) CCCN=C(Nc1ccc(Cl)cc1)c1cccnc1
    0%	-4%	2%	-7%	15%	-9%	-5%	4.9%
(18) Cc1ccc(-n2c(C)c(C)c3c(NCCO)ncnc32)cc1
    u	x	-1%	23%	13%	-1%	-25%[46.1 µM]	x
(19) CCNC(=S)N1CCC(c2nc3cc(C)c(C)cc3[nH]2)CC1
    19%[46.1 µM]	5%	16%	0%	-8%	-14%	-3%[46.1 µM]	1.0%
(20) Cc1cc(=O)[nH]c(SCC(=O)C23CC4CC(CC(C4)C2)C3)c1C#N
    -9%	-6%	-9%	-10%	-19%	-31%	-15%	1.4%

More structures.
Under each structure – MARV entry inh	Cruzain noTriton	SARS PLP yeast	StopGo reporter	RE007 growth inh	NS1 function inh	LASV entry inh	Cruzain Triton
(21) O=C(NCc1cccnc1)c1cnc2n(c1=O)CCS2
    21%	-5%	-16%	10%	2%	-1%	18%	-3.5%
(22) CCc1cccc2c(-c3ccccc3)nc(SCC(=O)Nc3ccccc3OC)nc12
    -24%[46.1 µM]	u	x	-19%	x	x	19%[46.1 µM]	1.6%
(23) CCOC(=O)c1c(C)[nH]c(C(=O)CSc2ccccc2)c1C
    u	u	1%	21%	-4%	0%	18µM*	0.5%
(24) Cn1cnnc1SCC(=O)Nc1sc2c(c1C#N)CCCCC2
    21%	0%	7%	25%	6%	1%	3%	-7.0%
(25) CCOc1ccc(NC(=O)c2cccc(OC(=S)N3CCC(C)CC3)c2)cc1
    6%	-4%	-5%	4%	1%	u	15%	-5.3%
(26) COC(=O)C(Cc1ccccc1)P(=O)(c1ccccc1)c1ccccc1 (stereo not drawn)
    -2%	10%	14%	-12%	-7%	-11%	7%	-0.4%
(27) Cc1ccc2nsnc2c1NC(=S)NC(=O)c1ccco1
    -19%	1%	1%	-16%	-20%	12%	-13%	-5.1%
(28) COc1ccc(C)cc1NC(=O)Cn1c(=O)c(C(F)(F)F)nc2ccccc21
    x	-6%	x	0%	x	x	-10%[46.1 µM]	-0.5%
(29) CC(C1CC2CCC1C2)n1c(-c2ccco2)n[nH]c1=S (stereo not drawn)
    -4%[46.1 µM]	x	0%	2%	12%	x	-10%	x
(30) COc1cc(CCC(=O)OCC(=O)c2ccc[nH]2)cc(OC)c1OC
    u	x	x	4%	43%	x	26%	x
(31) COc1ccccc1C(=O)Nc1ccc(S(=O)(=O)N(C)c2ccccc2)cc1
    -18%	x	x	4%	-9%	x	u	x
(32) CN(Cc1nc(-c2cnccn2)no1)Cc1cccc2ccccc12
    x	x	0%	-14%	-1%	-8%	x	x
(33) CC(C)C(=O)N1CCN(CCN=CC2=C(O)CC(c3ccco3)CC2=O)CC1 (stereo not drawn)
    u	-9%	5%	-2%&13%	4%&-4%	5%	11%&-15%	2.1%
(34) Cc1ccc(NC(=O)COC(=O)c2csc3c2CCC(C)C3)cc1S(=O)(=O)N1CCCCC1 (stereo not drawn)
    u	25µM*	7%	0%	8%	u	u	-4.3%
(35) COc1ccc(Cl)cc1C=CC=Nc1ccccc1O
    0%	x	x	-17%	-30%	x	-25%	x
(36) CCN1C(=O)c2cccc3c(S(=O)(=O)NCc4ccccn4)ccc1c23
    0%[46.1 µM]	6%	-3%	9%	17%	6%	1%	-3.7%
(37) CC(=O)Nc1ccc(S(=O)(=O)N(c2cccnc2)S(=O)(=O)c2ccc(NC(C)=O)cc2)cc1
    u	-9%	18%	-9%	1%	1%	0.82µM*	-1.8%
(38) CCN1C(=O)c2ccccc2Sc2ccc(NC(=O)Nc3ccc(Br)c(C)c3)cc21
    x	7.9µM*	x	u	x	x	u	-1.7%
(39) Cc1cc(=O)[nH]c(SCC(=O)Nc2ccc(S(=O)(=O)N3CCOCC3)cc2)n1
    -3%[46.1 µM]	-3%	-2%	7%	10%	10%	1%	-3.8%
(40) C=CCn1c(SCC(=O)Nc2nnc(C)s2)nnc1C1CC1
    u	x	1%	-20%	2%	26%	1%	x

More records follow:
Under each structure – MARV entry inh	Cruzain noTriton	SARS PLP yeast	StopGo reporter	RE007 growth inh	NS1 function inh	LASV entry inh	Cruzain Triton
(41) Cc1cc(N2CCCCC2)nc2ccc(NC(=O)/C=C/c3ccc(OC(C)C)cc3)cc12
    -10%[46.1 µM]	-11%	x	u	x	x	-2%[46.1 µM]	-1.4%
(42) COc1cc(S(=O)(=O)NCc2ccncc2)c(OC)cc1C
    u	x	4%	15%	19%	3%	-19%	x
(43) O=C(O)c1cccc(N2CCCC2=O)c1
    -11%	1%	-1%	29%	0%	12%	2%	1.5%
(44) COc1cc2c(cc1OC)/C(=C/C(=O)c1ccccc1)NCC2
    x	x	-3%	-23%	4%	-1%	x	x
(45) COC(=O)c1cc(NS(=O)(=O)c2ccc(N3CCOCC3)c(NC(C)=O)c2)cc(C(=O)OC)c1
    -4%	u	1%	-2%	8%	0%	23%	2.6%
(46) CN(C)NC1=CC(=[N+]2CCCC2)CC(C)(C)C1
    2%[46.1 µM]	x	1%	-5%	-11%	2%	0%	x
(47) CC1CN(C(=O)CN2C(=O)c3ccccc3C2=O)CC(C)O1 (stereo not drawn)
    u	-3%	1%	-23%	6%	4%	u	9.2%

Part of the list above, with one line to a screen:
36	CCN1C(=O)c2cccc3c(S(=O)(=O)NCc4ccccn4)ccc1c23
37	CC(=O)Nc1ccc(S(=O)(=O)N(c2cccnc2)S(=O)(=O)c2ccc(NC(C)=O)cc2)cc1
38	CCN1C(=O)c2ccccc2Sc2ccc(NC(=O)Nc3ccc(Br)c(C)c3)cc21
39	Cc1cc(=O)[nH]c(SCC(=O)Nc2ccc(S(=O)(=O)N3CCOCC3)cc2)n1
40	C=CCn1c(SCC(=O)Nc2nnc(C)s2)nnc1C1CC1
41	Cc1cc(N2CCCCC2)nc2ccc(NC(=O)/C=C/c3ccc(OC(C)C)cc3)cc12
Screen / compound no. | 36 | 37 | 38 | 39 | 40 | 41
MARV entry inh | 0%[46.1 µM] | u | x | -3%[46.1 µM] | u | -10%[46.1 µM]
Cruzain noTriton | 6% | -9% | 7.9µM* | -3% | x | -11%
SARS PLP yeast | -3% | 18% | x | -2% | 1% | x
StopGo reporter | 9% | -9% | u | 7% | -20% | u
RE007 growth inh | 17% | 1% | x | 10% | 2% | x
NS1 function inh | 6% | 1% | x | 10% | 26% | x
LASV entry inh | 1% | 0.82µM* | u | 1% | 1% | -2%[46.1 µM]
Cruzain Triton | -3.7% | -1.8% | -1.7% | -3.8% | x | -1.4%
